High-throughput results as filed in PubChem.
Sa growth inh: S. aureus growth inhibition at 42 and 30 °C, primary screen, LtaS inhibitor project, RN4220, two temperatures; OD600, 20 h, 42 °C; active compounds read low; relative growth, % (concentration not given with the values); 170,000 compounds, 0.53% hits;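 active = growth at 42 °C up to 50% and 20 or more points under that at 30 °C, or under 10% at both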;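 note: 300 nL library stock went into each well; scaled to the means of positive and negative controls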
HCMV NEC inh: inhibitors of HCMV UL50-UL53 interaction, biochemical, HTRF; normalized percent inhibition; inhibition, % (concentration not given with the values); 190,000 compounds, 0.15% hits;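 active = both replicates at 50% or more, plus weaker picks with an unusually low signal ratio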;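 note: stock transfer was 100 nL into about 20 µL; 0% = negative control wells and 100% = wells with untagged competitor protein; inactives centre near -12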
GIV-Gai inh: inhibitors of GIV peptide binding to Galpha-i3, primary screen, biochemical, fluorescence polarization, FITC-GIV GBA peptide, rat Galphai3. Guanine nucleotide-binding protein G(i) subunit alpha-3 (Rattus norvegicus), P08753. 90 min; active compounds read low; scaled: aluminum fluoride 0%, vehicle 100%. percent of control (FP), % (no concentration beside the values). 210,000 compounds, 0.42% hits;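 active = replicate mean at 85% of control or lower, very high polarization wells dropped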;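 note: wells of about 15 µL received 100 nL stock; the first replicate is given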
Target sequence (P08753 whole entry, looked up): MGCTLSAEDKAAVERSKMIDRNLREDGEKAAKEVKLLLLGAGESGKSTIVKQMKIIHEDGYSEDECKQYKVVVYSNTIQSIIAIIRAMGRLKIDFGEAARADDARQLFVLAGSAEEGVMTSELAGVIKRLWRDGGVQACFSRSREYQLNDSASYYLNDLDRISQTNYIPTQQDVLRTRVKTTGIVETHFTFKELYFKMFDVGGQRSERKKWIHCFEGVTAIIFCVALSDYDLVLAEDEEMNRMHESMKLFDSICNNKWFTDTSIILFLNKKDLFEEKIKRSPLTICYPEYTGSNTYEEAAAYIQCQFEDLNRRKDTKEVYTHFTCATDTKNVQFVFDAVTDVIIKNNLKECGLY
Sa growth inh second temp: further read-out of Sa growth inh, marked with its call; relative growth, %; measured here: growth at 30 °C;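 optical density after 20 h as mean of two plates; 100% = untreated growth and lower means inhibition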
* hit, by the source's call; . = not tested or not shown; & = joins results of further samples.

SMILES	Sa growth inh	Sa growth inh second temp	HCMV NEC inh	GIV-Gai inh
COc1cc(OC)c(NC(=O)N2CCCn3nc(C)cc32)cc1Cl	89.6	79.6	.	101.3
Cc1cc(N(C)Cc2ccccc2)nc2cc(O)ccc12	108.7	53.9	.	102.4
O=C1c2ccccc2C(=O)N1Cc1ccncc1	81.7	87.2	-54.4	102.9
CCN(CC)C(=O)COc1ccc2c(c1)C(=O)CC1(CCN(C(C)=O)CC1)O2	104.1	92.9	-7.1	102.0
COc1cccc(/C=C2/Sc3ccc(C(=O)N4CC(C)CC(C)C4)cc3NC2=O)c1 (stereo not drawn)	122.2	87.0	.	102.7
NC(=O)COC(=O)CCN1c2ccccc2Sc2ccccc21	132.6	93.4	3.4	.
CC1(C)CC(NC(=O)COC(=O)CCc2ccc(S(=O)(=O)N3CCCCC3)cc2)CC(C)(C)N1	95.8	91.4	-30.4	.
Cc1nnc(-c2cccc(S(=O)(=O)N3CCCC3c3ccc(F)cc3)c2)o1 (stereo not drawn)	112.2	95.4	-7.9	103.7
O=C1/C(=C/c2cccnc2)SC(=S)N1C1CCCC1	7.2*	22.9*	-38.2	104.5
CCN1C(=O)c2ccc(C(=O)Nc3nccs3)cc2C1=O	98.0	99.4	-56.0	116.5
CC(=O)c1ccc(NC(=O)C2CCCN(S(=O)(=O)c3cn(C)cn3)C2)cc1 (stereo not drawn)	104.5	85.8	.	101.0
N#Cc1c(N2C(=O)C3C4C=CC(C4)C3C2=O)sc2c1CCCC2 (stereo not drawn)	130.3	85.0	-21.6	94.4
CN(C)CCS(C)(=O)=O	90.2	86.7	-25.0	104.4
CC(C)OCCCn1c(SCc2ccccc2C#N)nc2c(sc3ccccc32)c1=O	77.5	85.4	.	100.2
OCCc1ccccc1	88.0	90.8	-39.0	.
O=C(COc1ccccc1Cl)Nc1ccccc1OCc1cc(=O)n2c3c(sc2n1)CCCC3	.	.	-11.0	105.6
ON=C1CC2C3C/C(=N\O)C4C3CC2C14 (stereo not drawn)	99.4	90.3	-29.3	.
C=CCn1c(=N)n(CC(=O)OC)c2ccccc21	95.2	93.7	-2.6	98.8
Cc1ccc2cccc(NC(=O)c3ccccc3)c2n1	.	.	0.9	107.2
CN(C)c1ccc(C2C=C(c3ccccc3)Nc3nnnn32)cc1 (stereo not drawn)	109.5	92.6	-7.2	101.0
CC1Cc2cc(-c3cc(C(=O)Nc4nnc(C(C)C)s4)no3)ccc2O1 (stereo not drawn)	.	.	-18.8	101.1
COc1ccc(S(=O)(=O)N2CCC(CN3C(=O)c4cccc5cccc(c45)C3=O)CC2)cc1	.	.	-22.6	98.0
COc1cccc(C2=CC(c3ccc(Cl)cc3)n3ncc(C(=O)Nc4cc(Cl)ccc4C)c3N2)c1 (stereo not drawn)	.	.	-37.4	113.9
CC1OCN(c2ccc(F)cc2)Cn2c1nc1ccccc12 (stereo not drawn)	100.3	94.9	-43.0	105.0
CC(C)OC(=O)CNc1n[nH]c(=S)[nH]c1=O	91.4	91.7	-25.1	102.3
CC(=O)Nc1cc2c(s1)CCCC2	92.8	86.9	-10.9	.
Oc1ccccc1C=Nc1ccc(Br)cc1	117.1	72.7	-31.0	.
COc1ccc(-c2ccc(=O)n(CC(=O)N(C)c3ccccc3)n2)cc1	100.1	93.1	.	101.7
C=CCN(CC=C)C(=O)c1ccc(N2CCNCC2)c(NS(C)(=O)=O)c1	.	.	-14.1	99.8
CC(C)CCNC(=O)Cn1c(=O)c2cccn2c2ccc(F)cc21	71.6	87.2	-21.6	104.2
COc1ccc(C)cc1Nc1nc2ccc(C)cc2n2cnnc12	104.0	96.7	-10.1	105.4
CCN(CC)c1ncnc2sc3c(c12)CCC3	88.3	80.8	3.6	.
Cc1ccc(CCN2C(=O)c3cc4ccsc4n3CC2(C)C(=O)NC2CCCC2)cc1 (stereo not drawn)	.	.	-35.0	110.6
O=C(NC1CCCC1)c1ccc(N2CCNCC2)c(NS(=O)(=O)c2ccc3c(c2)CCCC3)c1	.	.	-7.6	104.0
CCOCCCNC(=O)c1ccc2c(c1)N(Cc1ccccc1)C(=O)CS2=O (stereo not drawn)	.	.	-3.9	101.1
CC(=O)Nc1ccccc1-c1nc2ccccc2n(C(C)C(=O)Nc2ccccc2C(F)(F)F)c1=O (stereo not drawn)	102.5	74.8	13.4	103.4

Taken from above.
`CCOCCCNC(=O)c1ccc2c(c1)N(Cc1ccccc1)C(=O)CS2=O` (stereo not drawn) | GIV-Gai inh = 101.1
`C=CCN(CC=C)C(=O)c1ccc(N2CCNCC2)c(NS(C)(=O)=O)c1` | GIV-Gai inh = 99.8
`Cc1ccc(CCN2C(=O)c3cc4ccsc4n3CC2(C)C(=O)NC2CCCC2)cc1` (stereo not drawn) | HCMV NEC inh = -35.0

Going on with the list.
SMILES	Sa growth inh	Sa growth inh second temp	HCMV NEC inh	GIV-Gai inh
Cn1c(=O)oc2cc(S(=O)(=O)NCCCN3CCN(c4cccc(Cl)c4)CC3)ccc21	129.4	92.7	.	102.8
Cc1ccc(C)n1-c1ccc(C(=O)N2CCCCC2C)cc1 (stereo not drawn)	108.5	87.2	-7.6	.
CCn1c2ccccc2c2cc(N=Cc3ccc(OC(=O)c4ccco4)cc3)ccc21	97.1	105.0	5.2	.
Cc1ccc(S(=O)(=O)NCc2nc3cccnc3n2Cc2ccccc2Cl)c(C)c1	85.7	97.1	.	103.0
CS(=O)(=O)Nc1cccc(C(=O)OC2CCOC2=O)c1 (stereo not drawn)	102.9	84.9	-22.2	.
CCOC(=O)Cn1c(=O)c(-c2nc(-c3ccccc3)cs2)cn(C(C)C)c1=O	100.2	87.1	-38.5	100.3
CN(C)c1oc(COc2ccc(F)cc2)nc1C#N	98.3	97.2	-13.0	99.8
COc1ccc(CC(=O)OCC(=O)Nc2ccc3c(c2)OCO3)cc1	95.1	89.9	-8.1	.
O=C(Cn1c(NCCO)nc2ccccc21)N1CCOCC1	83.2	88.4	-18.3	.
COC(=O)c1cc(N2C(=O)C3C4C=CC(O4)C3C2=O)ccc1Cl (stereo not drawn)	.	.	-10.0	97.0
CCN(CC)CCNC(=O)C1CCCN(c2ncnc3onc(C)c23)C1 (stereo not drawn)	79.8	87.3	.	101.1
CC(=O)c1ccc(Oc2nc(C)nc3c2oc2ccccc23)cc1	93.4	75.5	.	94.2

Next section (four carried over from the part before).
SMILES	Sa growth inh	Sa growth inh second temp	HCMV NEC inh	GIV-Gai inh
O=C(Cn1c(NCCO)nc2ccccc21)N1CCOCC1	83.2	88.4	-18.3	.
COC(=O)c1cc(N2C(=O)C3C4C=CC(O4)C3C2=O)ccc1Cl (stereo not drawn)	.	.	-10.0	97.0
CCN(CC)CCNC(=O)C1CCCN(c2ncnc3onc(C)c23)C1 (stereo not drawn)	79.8	87.3	.	101.1
CC(=O)c1ccc(Oc2nc(C)nc3c2oc2ccccc23)cc1	93.4	75.5	.	94.2
CC(=O)NCc1ccc(C(=O)CSc2nc(C3CC3)n(-c3ccccc3)n2)s1	117.0	74.3	-34.8	.
CCCN(CCC)C(=O)Cn1c2ccccc2c2nc(=O)cc(C)n21	104.0	95.2	-1.2	107.7
NNC(=S)NCc1ccc2c(c1)OCO2	86.1	88.1	-3.2	.
Cc1cc(CSc2ccccc2C(=O)OCc2nc3sc4c(c3c(=O)[nH]2)CCC4)no1	105.6	100.9	-11.2	.
O=C(Nc1ccc2c(c1)nc1n2CCCCC1)c1ccc(S(=O)(=O)C(F)F)cc1	90.3	88.5	-4.1	.
CC(C)CCNC(=O)c1cc2ccc3cccnc3c2[nH]1	125.3	77.1	-30.4	104.1
Cc1c(CC(=O)N2CCOCC2)c(=O)oc2cc3occ(-c4ccc(F)cc4)c3cc12	94.1	21.6	-12.5	101.2
Cc1c(C(=O)Nc2cccc(Cl)c2)sc2nc3n(c(=O)c12)CCCCC3	.	.	-2.6	108.3
O=C(CCCn1c(=O)c2cccn2c2ccccc21)N1CCc2ccccc21	106.3	84.2	.	97.3
Cc1cccc(C2=Nc3ccccc3N=C(c3cc(C)ccc3O)C2)c1	.	.	1.3	109.9&98.0
CCN(CC)c1ccc(-c2cc(C(=O)O)c3c(ccc4ccccc43)n2)cc1	115.4	77.4	.	108.8
COc1cccc(CNC(=O)C2=C(C)C(=O)OC23CCCCCC3)c1	80.0	82.1	.	99.3
CC1=C(C(=O)Nc2cccnc2)C(c2ccc(Cl)cc2)n2nc(SCc3ccccc3)nc2N1 (stereo not drawn)	121.3	92.9	-5.7	103.8
Cc1ccc(N2CCn3c2nc2c3c(=O)n(CC(=O)O)c(=O)n2C)cc1C	.	.	1.6	101.0
COc1ccc(S(=O)(=O)N2CCN(c3ccccc3OC)CC2)cc1-c1noc(C)n1	105.1	90.5	22.1	104.2
CC(C)(C)NC(=O)CSc1nc2ccccc2n1-c1ccccc1	98.2	72.0	-7.8	.
Cc1ccc(SCC2=NN(c3nc(C)cc(C)n3)C(=O)C2)cc1	68.0	76.0	-13.9	101.0
COc1ccc(Cl)cc1NC(=O)c1cc2c(CO)cnc(C)c2oc1=N	108.3	106.3	20.7	104.6
CCN(Cc1ccccc1)C(=O)CSc1nnc(C)c(=O)n1N	98.5	93.3	-26.3	.
COc1ccc(C2c3c(n(C)c4ccccc34)C(=O)N2CC(=O)Nc2ccc(Cl)cc2)cc1 (stereo not drawn)	91.6	99.9	.	104.6
CC(=O)c1cc2c(cc1N/C(=N/S(=O)(=O)c1ccc(Br)cc1)c1ccccc1)OCO2	111.2	90.9	.	98.6
Cc1ccc(C)c(CN2C(=O)c3ccccc3S(=O)(=O)c3ccc(C(=O)N4CCCCCC4)cc32)c1	103.4	103.0	-6.1	103.5
C=C(C)Cn1c(C2CCCN2C(C)=O)nc2ccccc21 (stereo not drawn)	.	.	-12.7	103.6
CCCNC(=O)C1CCN(S(C)(=O)=O)CC1	98.4	83.1	-5.3	98.9
CC(=O)N(c1nc(-c2cc3ccccc3oc2=O)cs1)c1cccc(C)c1C	107.7	87.6	.	99.9
COc1cc(C2C3=C(CCCC3=O)OC3=C2C(=O)CCC3)ccc1O	.	.	5.0	106.6
COC(=O)CCN1C(=O)/C(=C\c2cccs2)SC1=S	87.8	99.4	.	129.1
Cc1cccc(NC(=O)C2CCCN2C(=O)OCc2ccccc2)n1 (stereo not drawn)	115.6	75.9	-7.2	96.2
CN(C)n1cccc1/C=C(\C#N)S(=O)(=O)c1cccc(Cl)c1	94.2	86.8	-4.8	102.0
Cc1ccc(NCc2ccccc2-c2nnc(-c3ccccc3Cl)o2)cc1Cl	102.1	90.0	-4.3	104.3
Cc1ccc(S(=O)(=O)c2[nH]c(-c3ccccc3)nc2SC(C)C(=O)O)cc1 (stereo not drawn)	88.0	88.7	-28.6	100.3
Cc1ccc(Cn2c(CNC(=O)c3cccc(C)c3)nc3ccccc32)cc1	107.7	90.8	-14.2	105.2
Cc1ccc(-c2cn3c(=S)[nH]nc3s2)cc1	85.1	52.6	-28.1	96.0
OCc1cccnc1Sc1ccccc1	.	.	-13.3	100.0
CCN(c1ccccc1)S(=O)(=O)c1nnc(NC(=O)C(C)(C)C)s1	88.0	90.5	-10.5	98.5
COc1cc(C(=O)Nc2ccc(OCc3cc(=O)n4cc(C)sc4n3)cc2)cc(OC)c1OC	97.0	100.1	1.4	109.4

Profiles as entered above.
Cc1cccc(C2=Nc3ccccc3N=C(c3cc(C)ccc3O)C2)c1 is listed with Sa growth inh: .; Sa growth inh second temp: .; HCMV NEC inh: 1.3; GIV-Gai inh: 109.9&98.0
Oc1ccccc1C=Nc1ccc(Br)cc1 is listed with Sa growth inh: 117.1; Sa growth inh second temp: 72.7; HCMV NEC inh: -31.0; GIV-Gai inh: .
CCN(Cc1ccccc1)C(=O)CSc1nnc(C)c(=O)n1N is listed with Sa growth inh: 98.5; Sa growth inh second temp: 93.3; HCMV NEC inh: -26.3; GIV-Gai inh: .

Going on with the list:
SMILES	Sa growth inh	Sa growth inh second temp	HCMV NEC inh	GIV-Gai inh
Cc1nnsc1-c1noc(CS(=O)(=O)c2ccc(Cl)cc2)n1	81.1	76.1	-41.6	107.6
COCCNC(=O)c1cnc2sccn2c1=O	.	.	-9.8	103.2
CC(C)NC(=O)n1ncc(S(=O)(=O)c2ccc(Cl)cc2)c1-c1ccc(Cl)cc1	109.2	107.7	-9.5	103.5
Cc1ccc(/C=C2/C=CC(=O)O2)o1	97.5	81.0	-25.1	.
NCC1CCN(C2CCCC2)CC1	81.5	91.4	1.5	98.3
Oc1cc(C2CCCCC2)cc(C2CCCCC2)c1	98.1	93.8	.	93.7
O=C(CCS(=O)(=O)c1ccc2[nH]c(=O)oc2c1)N1CCc2ccccc21	111.0	80.9	1.4	102.1
CCC(COc1nnnc2ccccc12)NC(=O)c1cnc(C)cn1 (stereo not drawn)	86.7	82.2	-44.5	98.1
COc1ccc(/C=c2\sc3n(c2=O)C(c2c(OC)ccc4ccccc24)C(C(C)=O)=C(C)N=3)cc1OC (stereo not drawn)	.	.	-32.2	184.6
O=C(CSCc1ccccc1)Nc1ccccc1	94.2	83.0	-28.9	101.1
O=C(CCCN1C(=O)c2cccnc2Sc2ccccc21)N1CCCC1	90.2	91.3	-33.9	107.8
O=C1CCc2cc(S(=O)(=O)NC(C(=O)Nc3cccc(F)c3)c3ccccc3)ccc2N1 (stereo not drawn)	107.1	79.2	-18.5	100.7
